Assay outcomes from PubChem BioAssay.
RanGTP-Imp inh – disruptors of Ran-importin-beta complex formation – biochemical, FRET, CFP-Ran, YFP-importin-beta, homogeneous, primary screen. cell-free CFP-Ran/YFP-importin-beta FRET ratio. inhibition, % (no concentration beside the values). 300,000 tested, 1.1% active;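 active = most replicates above 15%; inconclusive = exactly half above 15%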;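 note: 0% = DMSO wells and 100% = Ran loaded with GDP instead of GTP; wells of about 40 µL received 100 nL stock; the first replicate is given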
Calb FLC – C. albicans growth modulation with fluconazole. C. albicans CaCi-2 (fluconazole-resistant clinical isolate) + fluconazole, Alamar Blue growth, 48 h. growth inhibition, % (test concentration not listed). 300,000 tested, 0.57% active;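 active = most replicates above 75%; inconclusive = exactly half above 75%; inactive = most below 75%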;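 note: all wells also contain fluconazole at 8 µg/ml as a sub-toxic cotreatment; 0% = median of DMSO wells and 100% = median of geldanamycin control wells; wells of about 8 µL received 7.5 nL stock; the first replicate is given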
LANA-H2B inh – blocks KSHV LANA binding to histone H2A/H2B. cell-free LANA-H2A/H2B peptide, fluorescence polarization. inhibition, % (test concentration not listed). 320,000 tested, 0.6% active. Q9QR71; in the data active = inhibition mostly above about 10%, no sharp cut-off; inactive = mostly below about 6.7%;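 note: stock transfer was 7.5 nL into about 10 µL; 0% = median of vehicle wells and 100% = median of positive control wells; one replicate is shown; the record names a cut of 25% in any replicate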
Target sequence (Q9QR71 whole entry, looked up): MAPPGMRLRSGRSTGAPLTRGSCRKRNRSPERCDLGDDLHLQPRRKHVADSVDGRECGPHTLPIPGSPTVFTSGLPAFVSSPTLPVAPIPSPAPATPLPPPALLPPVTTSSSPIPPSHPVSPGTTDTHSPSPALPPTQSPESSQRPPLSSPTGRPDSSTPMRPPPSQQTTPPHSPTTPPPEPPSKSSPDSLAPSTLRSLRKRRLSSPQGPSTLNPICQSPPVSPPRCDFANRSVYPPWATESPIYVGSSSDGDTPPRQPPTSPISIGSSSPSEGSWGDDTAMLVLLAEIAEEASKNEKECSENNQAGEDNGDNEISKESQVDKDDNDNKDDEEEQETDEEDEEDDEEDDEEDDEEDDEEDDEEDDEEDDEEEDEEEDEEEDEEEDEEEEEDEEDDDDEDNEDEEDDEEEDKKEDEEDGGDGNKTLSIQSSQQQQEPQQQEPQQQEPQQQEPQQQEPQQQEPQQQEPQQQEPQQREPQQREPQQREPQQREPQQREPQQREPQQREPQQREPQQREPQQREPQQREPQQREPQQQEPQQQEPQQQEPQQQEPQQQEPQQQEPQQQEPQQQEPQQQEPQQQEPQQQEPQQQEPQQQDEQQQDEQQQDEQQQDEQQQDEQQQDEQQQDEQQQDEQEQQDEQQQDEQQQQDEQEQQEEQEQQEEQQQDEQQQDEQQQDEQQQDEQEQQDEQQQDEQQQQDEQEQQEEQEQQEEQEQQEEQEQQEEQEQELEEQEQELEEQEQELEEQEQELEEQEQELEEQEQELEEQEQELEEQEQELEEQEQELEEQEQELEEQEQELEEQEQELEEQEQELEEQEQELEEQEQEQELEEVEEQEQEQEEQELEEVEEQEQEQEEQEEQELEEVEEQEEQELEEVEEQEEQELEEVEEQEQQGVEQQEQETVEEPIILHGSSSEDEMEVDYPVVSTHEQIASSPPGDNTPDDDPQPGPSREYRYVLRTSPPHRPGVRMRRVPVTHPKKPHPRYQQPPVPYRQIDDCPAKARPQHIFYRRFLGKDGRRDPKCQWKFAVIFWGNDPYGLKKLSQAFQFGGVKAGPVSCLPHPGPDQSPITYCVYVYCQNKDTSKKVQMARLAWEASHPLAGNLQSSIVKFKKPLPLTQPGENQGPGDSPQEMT
ALR inh – blocks human ALR sulfhydryl oxidase activity. 290,000 tested, 3.8% active. purified ALR, DTT oxidation, H2O2 HRP-luminol luminescence. inhibition, % (concentration not given with the values). P55789;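 active = mean and each replicate at 75% or more; inconclusive = only one of the two met; inactive = neither met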;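 note: stock transfer was 7.5 nL into about 7.5 µL; 0% = neutral wells and 100% = wells with inactivated enzyme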
Vif A3G – HIV-1 Vif–A3G interaction blockers – biochemical, TR-FRET, GST-Vif 1-94, biotin-A3G peptide, dose response retest, primary screen (AID 1117319); 260,000 tested, 0.57% active; TR-FRET GST-Vif / biotin-A3G peptide binding; higher % means a stronger effect; test concentration not given here; strong numbers were not always called active; one-dose inhibition, %; IC50 in µM for titrated hits;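 active = above the screen mean plus three standard deviations and confirmed in dose response; inconclusive = results disagree or hit not tested in dose response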;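 note: Vif residues 1-94 fused to GST binding biotinylated APOBEC3G peptide 110-148; 0% = full assay without inhibitor and 100% = GST in place of GST-Vif; retest series ran down from 100 µM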
B2AR ag – activates human beta-2 adrenergic receptor causing internalization | 340,000 tested, 0.43% active | Am2.2-beta2AR cells, FAP receptor internalization, flow cytometry; reference of the scale not given here | response, % (concentration not given with the values) | AID 504454 | P07550;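 active = response above a set limit, near 3 SD of response in nonfluorescent compounds, cut at about 42% in these data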;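 note: stock transfer was 100 nL into about 11 µL; a reference agonist was the positive control; negative values mostly stem from fluorescent compounds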
HNF4A DNA FP – change in binding of human HNF4 alpha to DNA. P41235. HNF4a-FITC DNA binding, fluorescence polarization, 1 h. activity change, % at 10 µM. 360,000 tested, 0.3% active. AID 1224865; in the data active = activity change above about 30%, passing the limit was not always enough;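 note: controls were the assay level and a saturating level of protein; the project sought stronger binding though the title names inhibitors; some compounds called inactive have numbers as strong as hits; positive values seem to mean higher polarization but the record does not say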
* = called active by the depositor; ? = inconclusive; nt = not tested or not shown; & = joins results of further samples.

SMILES	RanGTP-Imp inh	Calb FLC	LANA-H2B inh	ALR inh	Vif A3G	B2AR ag	HNF4A DNA FP
CCOc1ccc(-c2cccc(NC(=O)c3cccs3)c2)nn1	1.3	5	-5.4	nt	0%	0	-0.2
Cn1nnnc1SCCNCc1cccc2ccccc12	3.4	4	2.1	-7	-5%	-2	2.2
CCn1c2ccccc2c2cc(/C=N/n3c(-c4cc(C)[nH]n4)n[nH]c3=S)ccc21	-3.0	14	2.3	-2	3%	2	0.8
COc1c2ccoc2nc2c(OC)cccc12	0.3	0	3.1	-1	-6%&-1%	3	-2.5
COC(=O)c1ccc(OCC(O)CNCC(c2ccc(OC)cc2)N(C)C)c(OC)c1 (stereo not given)	-0.8	-9	1.2	1	-7%	-8	3.8
Cc1onc(-c2ccccc2)c1C(=O)NCC1COc2ccccc2O1 (stereo not given)	0.4	-3	nt	nt	66%	-21	4.5
CCCCC(=O)Nc1nnc(CCOC)s1	0.1	-3	0.0	nt	-4%	0	2.6
CCn1c(CNC(=O)Cc2ccc(OC)cc2)nnc1SCC(=O)Nc1nccs1	5.4	-3	-0.1	-8	4%	4	-2.3
COc1ccc(C(=O)Cn2nnc(-c3cccs3)n2)cc1	-0.9	3	-2.5	1	-3%	2	1.4
COc1cccc(C(=O)N(CN2CCCC2=O)c2ccccc2OC)c1	3.8	4	-1.9	nt	-4%	7	-0.7
C=C1C[C@@]23CCC4[C@@](C)(CCC[C@@]4(C)C(=O)O)C2CC[C@]1(O)C3 (stereo not given in full)	nt	nt	0.2	17	nt	-5	3.4
CCOc1cccc2sc(N(CCCN(C)C)C(=O)c3ccc(C(=O)c4ccccc4)cc3)nc12	-0.4	2	4.3	-7	nt	30	9.3
CC(C)C(C(=O)Nc1ccccc1)N1C(=O)c2ccccc2C1=O (stereo not given)	2.4	-2	-3.4	-7	21%	-1	4.8
Cc1nc2ncnn2c(C)c1CCC(=O)N1CCOCC1	-1.7	18	-3.3	-21	19%	6	-2.3
COc1cccc(C=Nc2ccc3c(c2)OCCO3)c1O	4.1	-4	1.1	87*	-4%	20	0.9
CC(=C/c1ccccc1)/C=N/NC(=O)c1cccs1	3.7	5	-1.1	-3	-2%	4	-0.9
COc1ccc(NC(=O)c2ccc3ncsc3c2)cc1	1.8	6	-4.3	nt	-18%	3	-0.1
CCN(CC)c1ccc(NC(=O)CSc2nc(C)cc(=O)[nH]2)cc1	-3.4	3	-1.5	99*	?	7	-0.9
CCOc1ccc(N2CC(C(=O)NCCc3ccc(S(N)(=O)=O)cc3)CC2=O)cc1 (stereo not given)	-3.4	-1	4.2	27	nt	9	-0.5
CCN(CC)C(=O)C1=C(C)NC(=O)NC1c1c(F)cccc1Cl (stereo not given)	-2.1	1	4.9	3	-2%	3	7.2
CN(C)CCn1c(=O)n(-c2cccc(Cl)c2)c(=O)c2c3c(sc21)CCCCC3	-1.4	-3	2.6	-1	-1%	-8	4.1
O=C1OC(N2C(=O)CC[C@H]2C(=O)NCC2CCCO2)c2ccccc21 (stereo not given in full)	6.0	3	-1.6	-7	nt	2	3.7
CCc1ccc(C(=O)C(C)OC(=O)C2COc3ccccc3O2)cc1 (stereo not given)	-3.1	-21	0.0	-4	-8%	5	-1.1
COc1ccc(C(=O)N2CCc3cc(OC)c(OC)cc3C2)cc1OC	-0.5	9	-1.6	-9	1%	0	0.9
Cc1ccc(Cl)cc1N(Cc1ccc(C(=O)NCc2cccnc2)cc1)S(=O)(=O)c1ccccc1	nt	1	-1.2	-4	19%	-1	2.1
COc1ccc(Br)cc1CN1CCCC(C(=O)N2CCCCCC2)C1 (stereo not given)	0.2	17	-1.1	-4	-8%&-1%	1	3.9
O=C(NC(=S)N1CCCc2ccccc21)c1ccccc1	6.1	-2	-0.6	99*	28µM*	-5	0.2
Cn1c(=O)c2c(nc(NC3CCCCC3)n2CC(O)COc2ccccc2)n(C)c1=O (stereo not given)	0.9	-16	1.8	nt	16%	-8	-3.0
CC1CN(Cc2ccco2)C(=S)NC1=O (stereo not given)	nt	nt	nt	nt	1%	-6	-2.8
O=C(N/N=C1\CC2CC=CC12)c1ccc(O)cc1 (stereo not given)	-2.3	-4	0.4	-6	-3%	6	-0.2
COc1ccc(N2CCN(c3cc(C)nc4ccc(OC)cc34)CC2)cc1	3.1	52	6.8	nt	nt	6	3.4
Cc1ccc(S(=O)(=O)N2CCCC2C(=O)N2CCCCCC2)cc1 (stereo not given)	3.3	-6	-8.5	-5	-2%	-3	-2.8
Cc1c(NC(=O)CSc2ccccc2Cl)c(=O)n(-c2ccccc2)n1C	?	-4	0.3	-1	1%	-1	-1.3
Cc1ccc(-c2nc(CN3CCN(C(=O)C4CCCO4)CC3)cs2)cc1 (stereo not given)	-5.4	0	0.6	99*	-5%	3	-3.4
Cc1ccc(Cn2nc(C)cc2C(=O)Nc2ccc(Cl)cc2)cc1	-0.9	12	-0.3	-9	-1%	-16	-2.9
Cc1ccc(-c2nn(C)c(=O)c3ccccc23)cc1CNC(=O)c1ccccc1	-0.4	4	-3.3	-8	nt	-1	9.3
COc1ccc(N=c2oc3ccccc3cc2C(=O)Nc2ccccn2)cc1OC	6.2	-5	8.2	-1	-7%	nt	nt
COc1ccc(NC(=O)CSc2nnnn2C2CCCCC2)cc1	5.0	-3	1.1	nt	nt	-16	6.6
O=C1C2CC=CCC2C(=O)N1c1ccc(NCCc2ccccc2)c([N+](=O)[O-])c1 (stereo not given)	?	8	-2.8	1	?	3	1.0
COC(=O)[C@H]1CCCN1C(=O)Nc1cccc(Oc2c(F)c(F)c(F)c(F)c2F)c1	nt	nt	4.9	8	8%	-1	-3.6
COc1cc(NC(=O)c2[nH]c(C)c(C(C)=O)c2C)cc(OC)c1OC	-1.1	-5	0.3	-16	nt	4	5.0
OCC1(CCCc2ccccc2)CCN(Cc2cnc(N3CCOCC3)s2)CC1	0.5	13	-2.0	-2	-12%	-5	1.0
O=C1C(C=NCCCN2CCOCC2)=C(O)c2ccccc21	-2.8	6	-0.6	-3	0%	0	-1.1
COc1ccc(NC(=O)CCCc2ccccc2)c(OC)c1	-1.9	4	2.6	-28	0%	-1	2.1
CCOC(=O)N1CCN(c2c(Nc3ccc4c(c3)OCCO4)c(=O)c2=O)CC1	-3.1	-10	-3.5	34	-1%	1	-0.8
CC(=O)NCC(=O)OCC(=O)Nc1nc(-c2ccccc2)cs1	1.0	-16	0.7	0	-4%	0	-4.8
COc1ccc(Cl)cc1NC(=S)N1CCN(C(=O)c2ccco2)CC1	0.4	-4	-3.3	-10	3%	-2	-2.2
Cc1ccc(C2N=C(N)Nc3nc(=O)c4ccccc4n32)cc1 (stereo not given)	0.7	-6	1.8	-5	-6%	-4	0.8
COc1ccccc1-c1cc(C(F)(F)F)nc(NCc2cccs2)n1	2.5	-3	2.4	1	?	-5	-4.4
CCOC(=O)C1CCN(Cc2ccc3ccccc3c2)CC1	5.3	0	4.0	11	nt	12	-1.7
CCOC(=O)c1sc2nc(NC(=O)C3CCCCC3)sc2c1C	3.2	-4	2.7	-5	-8%	4	5.6
CC1CC(C)CN(c2oc(Cc3ccccc3)nc2C#N)C1 (stereo not given)	?	-6	-1.0	3	-7%	-8	2.5
COc1ccc(NC(=O)C2CC(=O)N(c3ccccc3Cl)C2)c(OC)c1 (stereo not given)	-1.5	1	2.8	-1	nt	4	-0.2
C/C(=N\NC(=O)Cc1c[nH]c2ccccc12)c1ccc2ccccc2c1	5.7	-9	0.7	12	3%	16	-6.2
S=C(NCc1ccccc1)Nc1ccncc1	7.0	-4	5.2	-4	4%	-7	-2.4
Cc1onc(-c2ccccc2)c1C(=O)N1CC(C)OC(C)C1 (stereo not given)	0.4	-8	-0.1	-16	25%	1	0.1
O=C(C[C@@H]1C/C=C/CC[C@@H](Cc2ccc(F)cc2)C(=O)OC[C@H](Cc2ccccc2)NC1=O)N[C@H](CO)Cc1ccccc1	nt	nt	-1.2	3	nt	6	1.2
O=C(Nc1ccccc1)C1CC=CCC1C(=O)OCC1CCCO1 (stereo not given)	2.1	-5	3.1	2	28%	16	4.7
Cc1noc(C)c1COC(=O)C1CC(O)CN1S(=O)(=O)c1ccc(Cl)cc1 (stereo not given)	-5.7	-10	-0.1	nt	-2%	-4	-0.9
O=C(NCCN1CCOCC1)C(=O)NCC1OCCN1S(=O)(=O)c1ccccc1 (stereo not given)	1.0	-4	2.2	3	3%	2	0.7
O=S(=O)(NCCCCNS(=O)(=O)c1c(F)cccc1F)c1ccc2c(c1)OCCO2	nt	nt	-2.5	-1	nt	2	1.1
Cc1noc(C)c1CSc1nc2sc(C)c(C)c2c(=O)n1-c1ccccc1	-2.8	1	-1.1	0	-2%	-7	3.6
COc1ccc(Cl)cc1NC(=O)CSc1nnc(Cc2ccc(C)cc2)c(=O)[nH]1	1.7	26	4.8	6	-2%	-3	4.0

Part of the list above, bar-delimited:
Structure | RanGTP-Imp inh | Calb FLC | LANA-H2B inh | ALR inh | Vif A3G | B2AR ag | HNF4A DNA FP
COc1ccc(Cl)cc1NC(=S)N1CCN(C(=O)c2ccco2)CC1 | 0.4 | -4 | -3.3 | -10 | 3% | -2 | -2.2
Cc1ccc(C2N=C(N)Nc3nc(=O)c4ccccc4n32)cc1 (stereo not given) | 0.7 | -6 | 1.8 | -5 | -6% | -4 | 0.8
COc1ccccc1-c1cc(C(F)(F)F)nc(NCc2cccs2)n1 | 2.5 | -3 | 2.4 | 1 | ? | -5 | -4.4
CCOC(=O)C1CCN(Cc2ccc3ccccc3c2)CC1 | 5.3 | 0 | 4.0 | 11 | nt | 12 | -1.7
CCOC(=O)c1sc2nc(NC(=O)C3CCCCC3)sc2c1C | 3.2 | -4 | 2.7 | -5 | -8% | 4 | 5.6
CC1CC(C)CN(c2oc(Cc3ccccc3)nc2C#N)C1 (stereo not given) | ? | -6 | -1.0 | 3 | -7% | -8 | 2.5
COc1ccc(NC(=O)C2CC(=O)N(c3ccccc3Cl)C2)c(OC)c1 (stereo not given) | -1.5 | 1 | 2.8 | -1 | nt | 4 | -0.2
C/C(=N\NC(=O)Cc1c[nH]c2ccccc12)c1ccc2ccccc2c1 | 5.7 | -9 | 0.7 | 12 | 3% | 16 | -6.2
S=C(NCc1ccccc1)Nc1ccncc1 | 7.0 | -4 | 5.2 | -4 | 4% | -7 | -2.4
Cc1onc(-c2ccccc2)c1C(=O)N1CC(C)OC(C)C1 (stereo not given) | 0.4 | -8 | -0.1 | -16 | 25% | 1 | 0.1
O=C(C[C@@H]1C/C=C/CC[C@@H](Cc2ccc(F)cc2)C(=O)OC[C@H](Cc2ccccc2)NC1=O)N[C@H](CO)Cc1ccccc1 | nt | nt | -1.2 | 3 | nt | 6 | 1.2
O=C(Nc1ccccc1)C1CC=CCC1C(=O)OCC1CCCO1 (stereo not given) | 2.1 | -5 | 3.1 | 2 | 28% | 16 | 4.7
Cc1noc(C)c1COC(=O)C1CC(O)CN1S(=O)(=O)c1ccc(Cl)cc1 (stereo not given) | -5.7 | -10 | -0.1 | nt | -2% | -4 | -0.9
O=C(NCCN1CCOCC1)C(=O)NCC1OCCN1S(=O)(=O)c1ccccc1 (stereo not given) | 1.0 | -4 | 2.2 | 3 | 3% | 2 | 0.7
O=S(=O)(NCCCCNS(=O)(=O)c1c(F)cccc1F)c1ccc2c(c1)OCCO2 | nt | nt | -2.5 | -1 | nt | 2 | 1.1
Cc1noc(C)c1CSc1nc2sc(C)c(C)c2c(=O)n1-c1ccccc1 | -2.8 | 1 | -1.1 | 0 | -2% | -7 | 3.6
COc1ccc(Cl)cc1NC(=O)CSc1nnc(Cc2ccc(C)cc2)c(=O)[nH]1 | 1.7 | 26 | 4.8 | 6 | -2% | -3 | 4.0
